Screens: PubChem BioAssay, several laboratories
eIF4H inh – inhibitors of RNA binding by human eIF4H; Q15056; eIF4H fluorescence polarization binding assay; inhibition, % at 35 µM; 290,000 compounds, 0.94% hits;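 active means 50% or more with normal probe brightness, or confirmed in later tests; about a fifth of its hits are not listed in these tables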;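 further: calls also rest on retests at 20 µM and on dose response follow-up; 0% = protein and probe with vehicle and 100% = probe without protein; strong numbers were not always called active; many hits fall short of the cut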
CSC inhib – cancer stem cell inhibition | cancer stem cell-like cells viability, luminescence | inhibition, % at 7.5 µM | 300,000 compounds, 1.1% hits | AID 2717;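 active means mean at 75% or more and at least half the replicates too; tested in HMLE shEcad cells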;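 further: 0% = median of negative and 100% = median of positive control wells; the first replicate is given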
MT1-MMP act inh – MT1-MMP (human) activation inhibition; GFP/RFP ratio change, % at 20 µM; 360,000 compounds, 0.061% hits; AID 651647; HT1080 RFP-PRO-GFP cells, GFP/RFP ratio fluorescence, overnight; percent of plate control window, DMSO zero;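 active means GFP/RFP ratio change of at least 30% with cell ATP level not reduced by more than half and red fluorescence within 50% of control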; further: strong numbers were not always called active
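Assay system – RFP-PRO-GFP reporter HT1080 cells · Compound dosing – single dose of 20 µM compound, 1% DMSO final · Incubation – overnight compound exposure at 37 °C · Measure – GFP/RFP fluorescence ratio · Benchmarks – DMSO wells and RFP-L50D-GFP cells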
Rce1 inh – yeast Ras-converting enzyme inhibition; yeast membranes, quenched prenylated peptide cleavage fluorescence; calls only; 290,000 compounds, 0.27% hits; AID 2563;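 active means fall in fluorescence gain of 50% or more versus controls, with final raw signal at or below 3038400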;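 further: plate controls were neutral control wells for no effect and wells lacking membranes for full effect; tested at 10 µM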
Target sequence (Q03530 whole entry, looked up): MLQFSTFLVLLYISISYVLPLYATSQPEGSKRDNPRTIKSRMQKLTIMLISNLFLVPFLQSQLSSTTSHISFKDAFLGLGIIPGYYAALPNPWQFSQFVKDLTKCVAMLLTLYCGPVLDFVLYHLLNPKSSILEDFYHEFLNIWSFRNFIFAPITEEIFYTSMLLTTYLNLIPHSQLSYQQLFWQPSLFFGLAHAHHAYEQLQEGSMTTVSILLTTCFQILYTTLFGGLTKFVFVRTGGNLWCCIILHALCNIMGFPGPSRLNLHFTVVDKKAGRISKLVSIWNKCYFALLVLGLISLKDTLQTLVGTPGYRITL
PABP FP inh – blocks human PABP binding to poly(A) RNA; 290,000 compounds, 1% hits; inhibition, % at 35 µM; AID 2014; fluorescence polarization; P11940;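 active means 50% or more with normal probe brightness, or confirmed in later tests; about a fifth of its hits are not listed in these tables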;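 further: calls also rest on retests at 20 µM and on dose response follow-up; controls were probe without protein and protein plus probe with vehicle; some compounds called inactive have numbers as strong as hits; many hits fall short of the cut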
Env fusion inh – inhibitors of HIV Env-mediated cell fusion. HeLa-JRFL Env/CEM21 cell fusion, luciferase. inhibition, % at 12.3 µM. 360,000 compounds, 1.1% hits. AID 651610;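 active means mean replicate inhibition score of at least 50 and every replicate individually at or above 50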;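 further: 0% = plate neutral controls and 100% = maraviroc near 300 nM; one replicate is shown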
Yeast UUG start – alters start codon recognition fidelity in yeast. 350,000 compounds, 0.13% hits. activity score, % at 18.7 µM. S. cerevisiae UUG-firefly luciferase reporter, luminescence/redox ratio;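 active means replicate mean at a twofold rise or more, about +100% in these data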;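 further: firefly luciferase made from a UUG start codon reports start codon fidelity; reporter light over untreated wells divided by growth signal over untreated wells; some hits fall short of that in this replicate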
eIF4H inh retest – second read-out of eIF4H inh, no call of its own (marks repeat the call); inhibition, %; compound at 20 µM; confirmation average;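 mean of two retest wells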
PABP FP inh retest – also measured in PABP FP inh; calls as there; inhibition, %; compound at 20 µM; confirmation repeats;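 mean of two retest wells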
MT1-MMP act inh RFP – recorded beside MT1-MMP act inh, whose call it bears; RFP signal change, %; measured here: RFP expression control read;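 0 = vehicle wells; hits needed this value within 50% of zero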
Numbers without * were called inactive; i = inactive; nt = not tested or not shown.

SMILES	eIF4H inh	CSC inhib	MT1-MMP act inh	MT1-MMP act inh RFP	Rce1 inh	PABP FP inh	Env fusion inh	Yeast UUG start	others
O=C(CN1CCCCC1)N1c2ccccc2Sc2ccc(C(F)(F)F)cc21	-2	nt	-5	-7	nt	-3	nt	-11
CCOC(=O)C1=NN(c2ccccc2)C(=O)/C1=C\c1ccc(N(C)C)cc1	-11	-34	3	5	i	10	19	-27
c1ccc(Cn2nnnc2CN2CCN(Cc3ccc4c(c3)OCO4)CC2)cc1	0	24	4	2	i	7	nt	-6
CCc1cccc(CC)c1NC(=O)COC(=O)Cc1ccsc1	-4	-24	-2	-1	i	-2	8	nt
COc1ccccc1CNC(=O)c1ccc(N(C)S(=O)(=O)c2ccc(C)cc2)cc1	-5	38	-7	-9	i	9	-17	-4
COc1ccc(Nc2nc(-c3cccs3)nc3ccccc23)c(OC)c1	-7	-3	0	-1	i	1	37	2
COc1ccc(Nc2cc(C)nc3nc(C)nn23)cc1Cl	-6	8	-2	6	i	-9	10	-12
Cn1c(CC(=O)Nc2ccccc2F)nnc1SCC(=O)NC1CCCCC1	2	-8	1	4	i	9	0	-19
c1ccc(SCc2nc(-c3cccnc3)no2)cc1	-1	-7	2	0	i	2	nt	-34
COc1ccc(-n2cnnc2SCC(=O)NC2CCCc3ccccc32)cc1 (configuration not stated)	-5	-10	3	2	i	-1	13	nt
O=C(O)C1Cc2[nH]cnc2C(c2cccc([N+](=O)[O-])c2)N1 (configuration not stated)	1	-6	-3	2	i	-5	-8	nt
CC1CCN(c2ccc(C(=O)Nc3ccc4c(c3)OCO4)cc2[N+](=O)[O-])CC1	4	78*	0	-13	i	-1	8	nt
Cc1ccc(NC(=O)c2ccc(=O)[nH]n2)cc1S(=O)(=O)Nc1ccccc1Cl	nt	9	1	-2	nt	nt	-12	-9
COc1ccc(N(C)S(=O)(=O)c2cccc(C(=O)NCc3ccc(C)cc3)c2)cc1	nt	6	-11	-15	nt	nt	nt	-1
O=C(Nc1cccc(-c2ccc(N3CCCCC3)nn2)c1)c1ccc(Br)o1	nt	nt	3	0	i	nt	nt	-27
Cc1cnc(NC(=O)c2sc3ccccc3c2Cl)s1	-11	2	7	2	i	-12	-48	nt
C=CCNC(=O)COC(=O)c1c2c(nc3ccccc13)CCC2	59*	-6	-6	3	i	36*	19	-13	eIF4H inh retest=82*;PABP FP inh retest=71*
CCCCN(C)C(=O)C1CCN(Cc2ccc(OCc3ccccc3)cc2)CC1	7	38	-1	-7	i	0	nt	nt
O=C(CSc1n[nH]c(-c2ccccc2Br)n1)NC(=O)NCc1ccco1	2	-12	0	-3	i	7	-119	-23
CC(CN(C)Cc1ccccc1)OC(=O)C1COc2ccccc2O1 (configuration not stated)	-4	6	1	4	i	-6	-20	10
Cc1cccc(C(=O)Nc2ccc(NC(=O)CN3CCOCC3)cc2)c1	-5	nt	6	8	i	-3	3	-41
Cc1c(Cc2ccccc2)c(=O)oc2c(C)c(OCc3nn[nH]n3)ccc12	2	-13	1	-2	nt	26	nt	-14
CC(Nc1nc(-c2ccc(F)cc2)cs1)c1nc2cc(C(F)(F)F)ccc2n1CCCO (configuration not stated)	nt	39	-1	-16	i	nt	75*	-14
COc1cc(C(=O)Nc2cnc(NC(=O)C(C)C)cc2C)cc(OC)c1OC	nt	-18	-1	3	i	nt	nt	-3
COc1ccc(CCC(=O)Nc2nc3ccccc3[nH]2)cc1	3	12	0	2	i	5	nt	-20

Pulled one by one from the entries so far (4):
SMILES	eIF4H inh	CSC inhib	MT1-MMP act inh	MT1-MMP act inh RFP	Rce1 inh	PABP FP inh	Env fusion inh	Yeast UUG start	others
CCOC(=O)C1=NN(c2ccccc2)C(=O)/C1=C\c1ccc(N(C)C)cc1	-11	-34	3	5	i	10	19	-27
CCc1cccc(CC)c1NC(=O)COC(=O)Cc1ccsc1	-4	-24	-2	-1	i	-2	8	nt
COc1ccc(N(C)S(=O)(=O)c2cccc(C(=O)NCc3ccc(C)cc3)c2)cc1	nt	6	-11	-15	nt	nt	nt	-1
CC1CCN(c2ccc(C(=O)Nc3ccc4c(c3)OCO4)cc2[N+](=O)[O-])CC1	4	78*	0	-13	i	-1	8	nt

Back to the main list with the five entries that preceded the break.
SMILES	eIF4H inh	CSC inhib	MT1-MMP act inh	MT1-MMP act inh RFP	Rce1 inh	PABP FP inh	Env fusion inh	Yeast UUG start	others
Cc1cccc(C(=O)Nc2ccc(NC(=O)CN3CCOCC3)cc2)c1	-5	nt	6	8	i	-3	3	-41
Cc1c(Cc2ccccc2)c(=O)oc2c(C)c(OCc3nn[nH]n3)ccc12	2	-13	1	-2	nt	26	nt	-14
CC(Nc1nc(-c2ccc(F)cc2)cs1)c1nc2cc(C(F)(F)F)ccc2n1CCCO (configuration not stated)	nt	39	-1	-16	i	nt	75*	-14
COc1cc(C(=O)Nc2cnc(NC(=O)C(C)C)cc2C)cc(OC)c1OC	nt	-18	-1	3	i	nt	nt	-3
COc1ccc(CCC(=O)Nc2nc3ccccc3[nH]2)cc1	3	12	0	2	i	5	nt	-20
CC(C)[C@H](N)C(=O)N1CCC(C(=O)N[C@@H](Cc2ccccc2)C(=O)NCc2ccc(F)cc2)CC1	4	-1	0	5	i	-5	-2	-10
CS(=O)(=O)c1ccccc1-c1nnc(NC(=O)c2ccc3ncsc3c2)o1	nt	14	1	4	i	nt	-41	-18
CCCCOc1ccc(C2C(=O)N(C3CCCCC3)CC(=O)N2CC2CCCO2)cc1 (configuration not stated)	-15	-1	-3	0	i	-4	33	0
COc1ccc(C(C)NC(=O)Cc2ccc(Br)cc2)cc1 (configuration not stated)	-8	-3	4	4	i	-6	-9	nt
Cc1cc(Cl)c2oc(C(=O)N(C)C(C)c3ccccn3)c(C)c2c1 (configuration not stated)	2	13	1	0	i	-2	-8	-3
CC(=O)Nc1ccc(NC(=S)Nc2ccccc2)cc1	0	-5	4	5	i	0	nt	-23
CC(C)c1ccc(NC(=O)CCNS(=O)(=O)c2cccc3nonc23)cc1	9	13	3	2	i	-8	17	-8

Arranged by molar mass (smallest number first): part of the list above.
SMILES	eIF4H inh	CSC inhib	MT1-MMP act inh	MT1-MMP act inh RFP	Rce1 inh	PABP FP inh	Env fusion inh	Yeast UUG start	others
Cc1cc(Cl)c2oc(C(=O)N(C)C(C)c3ccccn3)c(C)c2c1 (configuration not stated)	2	13	1	0	i	-2	-8	-3
COc1ccc(C(C)NC(=O)Cc2ccc(Br)cc2)cc1 (configuration not stated)	-8	-3	4	4	i	-6	-9	nt
CS(=O)(=O)c1ccccc1-c1nnc(NC(=O)c2ccc3ncsc3c2)o1	nt	14	1	4	i	nt	-41	-18
